High-throughput results: PubChem, several laboratories
PABP FP inh: blocks human PABP binding to poly(A) RNA. fluorescence polarization. P11940. AID 2014. 1% of 290,000 active. inhibition, % at 35 µM;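 active = 50% or more with normal probe brightness, or confirmed in later tests; inconclusive = above 50% with abnormal brightness, or retests that disagree; inactive = below 50% or failed in later tests; about a fifth of its hits are not listed in these tables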;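 note: calls also rest on retests at 20 µM and on dose response follow-up; controls were probe without protein and protein plus probe with vehicle; some compounds called inactive have numbers as strong as hits; many hits fall short of the cut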
HIV Env fusion: inhibitors of HIV Env-mediated cell fusion. HeLa-JRFL Env/CEM21 cell fusion, luciferase. inhibition, % at 12.3 µM. 1.1% of 360,000 active;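 active = mean replicate inhibition score of at least 50 and every replicate individually at or above 50; inconclusive = only one of the two criteria met; inactive = mean below 50 and not all replicates reaching 50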;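 note: 0% = plate neutral controls and 100% = maraviroc near 300 nM; one replicate is shown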
eIF4H FP inh: inhibitors of RNA binding by human eIF4H | Q15056 | eIF4H fluorescence polarization binding assay | inhibition, % at 35 µM | 0.94% of 290,000 active | AID 2012;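 active = 50% or more with normal probe brightness, or confirmed in later tests; inconclusive = above 50% with abnormal brightness, or retests that disagree; inactive = below 50% or failed in later tests; about a fifth of its hits are not listed in these tables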;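 note: calls also rest on retests at 20 µM and on dose response follow-up; 0% = protein and probe with vehicle and 100% = probe without protein; strong numbers were not always called active; many hits fall short of the cut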
UUG fidelity: modulators of start codon recognition fidelity in yeast | AID 602363 | activity score, % at 18.7 µM | 0.13% of 350,000 active | S. cerevisiae UUG-firefly luciferase reporter, luminescence/redox ratio;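 active = replicate mean at a twofold rise or more, about +100% in these data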;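 note: firefly luciferase made from a UUG start codon reports start codon fidelity; reporter light over untreated wells divided by growth signal over untreated wells; some hits fall short of that in this replicate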
Rce1 inh: inhibitors of yeast Ras-converting enzyme; Q03530; yeast membranes, quenched prenylated peptide cleavage fluorescence; calls only; 0.27% of 290,000 active;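 active = fall in fluorescence gain of 50% or more versus controls, with final raw signal at or below 3038400; inconclusive = same 50% fall but final raw signal above 3038400; inactive = fall in fluorescence gain under 50%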;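 note: plate controls were neutral control wells for no effect and wells lacking membranes for full effect; tested at 10 µM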
Target sequence (Q03530 whole entry, looked up): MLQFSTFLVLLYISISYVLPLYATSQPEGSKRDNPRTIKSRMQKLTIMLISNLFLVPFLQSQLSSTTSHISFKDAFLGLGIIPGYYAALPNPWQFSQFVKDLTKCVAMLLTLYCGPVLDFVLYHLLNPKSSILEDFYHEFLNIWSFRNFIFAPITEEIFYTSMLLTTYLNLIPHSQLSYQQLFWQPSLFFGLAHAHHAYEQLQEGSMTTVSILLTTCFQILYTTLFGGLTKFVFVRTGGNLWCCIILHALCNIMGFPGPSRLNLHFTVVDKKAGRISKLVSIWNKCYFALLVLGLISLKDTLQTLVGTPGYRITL
CSC inhib: cancer stem cell inhibition; inhibition, % at 7.5 µM; cancer stem cell-like cells viability, luminescence; 1.1% of 300,000 active;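 active = mean at 75% or more and at least half the replicates too; inconclusive = mean and replicates disagree; tested in HMLE shEcad cells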;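 note: 0% = median of negative and 100% = median of positive control wells; the first replicate is given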
MT1-MMP act inh: blocks activation of human MT1-MMP; HT1080 RFP-PRO-GFP cells, GFP/RFP ratio fluorescence, overnight; percent of plate control window, DMSO zero; GFP/RFP ratio change, % at 20 µM; 0.061% of 360,000 active;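 active = GFP/RFP ratio change of at least 30% with cell ATP level not reduced by more than half and red fluorescence within 50% of control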; note: strong numbers were not always called active
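Assay system: RFP-PRO-GFP reporter HT1080 cells; read-out basis: GFP/RFP fluorescence ratio; benchmarks: DMSO wells and RFP-L50D-GFP cells; doses: 20 µM single dose, 1% DMSO; schedule: overnight cell settling, then overnight compound exposure, 37 °C, 5% CO2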
MT1-MMP act inh RFP: further read-out of MT1-MMP act inh, marked with its call; RFP signal change, %; measured here: RFP expression control read;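 0 = vehicle wells; hits needed this value within 50% of zero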
Numbers without * were called inactive; i = inactive; ? = inconclusive; / = no result given. Not a hit list. About 3% of those tested had a hit in this group.

canonical_smiles	PABP FP inh	HIV Env fusion	eIF4H FP inh	UUG fidelity	Rce1 inh	CSC inhib	MT1-MMP act inh	MT1-MMP act inh RFP
CCOC(=O)CN(C(=O)c1snc(C(N)=O)c1N)C(C(=O)NCCC(C)C)c1ccc(F)cc1 (centres undefined)	1	-40	-9	3	i	-4	2	1
O=C1c2ccccc2S(=O)(=O)c2cc(C(=O)N3CCN(c4ccccc4)CC3)ccc21	/	19	/	16	i	10	6	3
COc1ccc(NC(=S)c2ccc3ccccc3n2)cc1	-1	/	-12	-24	i	8	-6	5
O=C(O)COc1ccc2c3c(c(=O)oc2c1)CCC3	7	/	-2	-1	i	-10	4	1
CCc1cc(=O)oc2cc(C)cc(OCC(=O)NCc3ccncc3)c12	/	0	/	-16	i	-9	0	-1
COc1ccc(CNC(=O)C(=O)NCC(c2ccco2)N2CCOCC2)cc1 (centres undefined)	0	-81	1	/	i	-3	3	0
CCOc1ccccc1OCCOCCN1CCN(Cc2ccccc2)CC1	6	-19	14	/	i	-12	3	2
CCN(CC)C(=O)COc1ccc2oc(C)c(C(=O)OC)c2c1	-9	-106	-6	-25	/	-5	-1	1
O=C(NC1CCCCCC1)c1ccc(CN2CCOCC2)cc1	1	/	4	-14	i	-8	0	2
COc1ccc(-c2csc3ncnc(N4CCN(S(=O)(=O)c5ccc(C(C)=O)cc5)CC4)c23)cc1	/	16	/	-13	i	0	-7	-6
CCCCCCC1CCC(C(=O)Nn2c(C)nc3ccccc3c2=O)CC1 (centres undefined)	2	1	-1	-24	i	2	6	-1
COc1ccc2cc(CN(CCO)C(=O)c3ccc(Br)cc3)c(=O)[nH]c2c1	-2	/	4	9	i	/	0	-10
O=C(O)c1ccc2c(=O)n3c(nc2c1)/C(=C/c1ccc(C(F)(F)F)cc1)CC3	4	-3	-4	-1	i	-19	9	3
Cc1[nH]n(-c2ccc(Cl)c(Cl)c2)c(=O)c1CCO	8	28	2	-6	i	-9	3	2
CCOC(=O)N/N=C(\C)c1ccc(C)c([N+](=O)[O-])c1	-15	/	-11	-20	i	10	5	4
Cc1ccc(-n2c3c(cc(C(=O)NCc4ccco4)c2=O)C(=O)CC(C)(C)C3)cc1	1	/	0	-14	/	-11	-2	-6
Cc1ccc(CNC(=O)CSc2nc(=O)n3cccc(C)c3n2)cc1	/	-3	/	-20	i	-2	-2	-1
CCc1ccc(OCC(=O)Nc2ccc3c(c2)COC3=O)cc1	-14	-173	-3	-1	i	-4	3	2
Cc1cc(C)cc(N(CCC#N)C(=O)CSc2n[nH]c(N)n2)c1	/	9	/	-15	i	19	0	0
CCOC(=O)N1CCN(C(=O)C2COc3ccccc3O2)CC1 (centres undefined)	-8	-28	5	/	i	-8	1	4
O=C(CCCN1C(=O)/C(=C/c2ccccc2)SC1=S)Nc1ccc(O)cc1	-8	2	-9	/	i	60	8	4
CCOc1ccccc1-n1c(SCC(=O)NC)nnc1-c1ccco1	9	-14	-9	-15	i	6	2	2
CC(C(=O)Nc1ccccc1F)N1CCN(C)CC1 (centres undefined)	-4	/	3	/	i	-4	/	/
Cn1cccc1C(C(=O)NC1CCCCC1)N(C(=O)Cc1cccs1)c1ccc2c(c1)OCO2 (centres undefined)	-1	/	3	-22	i	-8	3	4
CCNc1nc(SCCOc2ccc(Cl)cc2Cl)nc(N(C)C)n1	0	17	1	/	i	/	-3	-5
CS(=O)(=O)c1nc(S(=O)(=O)c2ccc(Cl)cc2)c(N2CCC(C(N)=O)CC2)s1	-2	14	0	-19	i	-3	-3	-1
CC1(C)CC2CC(C)(CN2C(=O)COc2cccc3ccccc23)C1 (centres undefined)	-10	-25	-7	-12	i	38	-13	-8
Oc1ccc(N=C/C=C/c2cccc(Br)c2)cc1-c1nc2ccccc2s1	2	/	?	/	i	/	-3	7
C=CCC1NS(=O)(=O)OCC1NC(=O)OCC(Cl)(Cl)Cl (centres undefined)	16	11	-3	-19	i	19	0	-2
COc1cc2c(cc1C1NC(=S)NC(C)=C1C(=O)N(C)C)CCCC2 (centres undefined)	0	/	-8	/	i	-14	-1	3
O=C1C(=O)N(CCN2CCOCC2)C(c2ccc(F)cc2)/C1=C(/O)c1ccc(S(=O)(=O)N2CCOCC2)cc1 (centres undefined)	-5	16	-3	-11	i	2	0	2
COc1ccc([N+](=O)[O-])cc1NC(=O)C1CCCO1 (centres undefined)	1	-7	-6	/	i	-16	5	7
Cc1ccc2ccccc2c1COC(=O)c1nonc1N	0	/	-4	13	i	-13	6	4
CCCCNC(=O)C1(C)CCCCN1Cc1ccc(OCc2ccccc2)cc1 (centres undefined)	/	2	/	5	/	/	0	-11
Cc1nn(-c2ccc(N3CCOCC3)nn2)c(C)c1CCC(=O)NCc1ccc(F)cc1	-11	-4	-2	-1	i	-1	2	5
O=C(Cn1ccc(C(F)(F)F)n1)N/N=C/c1cccs1	-6	-14	9	0	i	-13	5	8
CC1CCCCN1S(=O)(=O)c1ccc(S(=O)(=O)N2CCN(c3ccccc3)CC2)cc1 (centres undefined)	6	-77	5	-14	i	3	2	-1
O=S1(=O)CCN(Cc2ccncc2)CC1	/	-6	/	-8	/	/	-3	4
C=CCNC(=S)Nc1ccc(C(N)=O)cc1	4	-19	6	/	i	-1	0	3
Cc1ccc(C)c(OCCC(=O)NNC(=O)c2ccccc2)c1	/	-33	/	-26	/	-6	5	3

By substructure: those above containing a CF3 group
canonical_smiles	PABP FP inh	HIV Env fusion	eIF4H FP inh	UUG fidelity	Rce1 inh	CSC inhib	MT1-MMP act inh	MT1-MMP act inh RFP
O=C(O)c1ccc2c(=O)n3c(nc2c1)/C(=C/c1ccc(C(F)(F)F)cc1)CC3	4	-3	-4	-1	i	-19	9	3
O=C(Cn1ccc(C(F)(F)F)n1)N/N=C/c1cccs1	-6	-14	9	0	i	-13	5	8

Going on with the list:
canonical_smiles	PABP FP inh	HIV Env fusion	eIF4H FP inh	UUG fidelity	Rce1 inh	CSC inhib	MT1-MMP act inh	MT1-MMP act inh RFP
Cc1cc(NC(=O)c2cccnc2)ccc1NC(=O)c1ccco1	-7	-9	-11	-11	i	-12	2	2
COc1cc(-c2nnc(SCc3c(F)cccc3Cl)o2)cc(OC)c1OC	-3	/	5	14	i	-15	0	-7
O=C(Nc1ccc(F)cc1)c1ccccc1NC(=O)C1CC=CCC1C(=O)O (centres undefined)	5	-19	-12	-8	i	-5	-4	2
Cc1ccc(C)c(N(C(=O)Cn2nnc(-c3cccs3)n2)C(C(=O)NC2CC2)c2ccc(C)o2)c1 (centres undefined)	1	/	-2	-3	i	4	1	0
Cn1ncc(Br)c1C(=O)NC(=S)N1CCN(c2ccccn2)CC1	0	15	-2	-16	i	-8	11	4
C/C(CC(=O)NCCc1ccccc1)=N\NC(=O)COc1ccc(Br)cc1	16	6	-10	-18	i	/	6	7
CC1=C(C(=O)OC2CCCCC2)C(c2ccco2)n2ncnc2N1 (centres undefined)	4	8	3	-12	i	4	0	-7
CCOC(=O)CSc1ccc(-c2nc3cc(C)c(C)cc3[nH]2)cn1	3	-60	5	-10	i	6	13	5
C=C[C@@]1(C)CC(=O)[C@]2(O)[C@@]3(C)[C@@H](O)CCC(C)(C)[C@@H]3[C@H](O)[C@H](OC(C)=O)[C@@]2(C)O1	/	/	/	-16	i	7	-2	0
C=CCNc1nc(N)c(C(=C(C#N)C#N)c2ccccc2)s1	4	-27	8	-15	i	12	-4	-1
Cc1cc(OCc2nc(-c3ccncc3)no2)cc(C)c1Cl	-10	11	-12	/	i	-1	1	0
CN(C)c1nc(Oc2ccc(/C=N/O)cc2)nc(N(C)C)n1	-8	/	4	9	i	/	-1	4
O=C(CN1C(=O)c2ccccc2C1=O)NCc1ccc(F)cc1	3	-13	1	-10	i	6	0	1
O=C(COc1coc(CN2CCN(c3ccccc3F)CC2)cc1=O)NCC1CCCO1 (centres undefined)	/	4	/	8	i	-8	-3	4
Cc1cccc(OCC(=O)N/N=C/c2sc(=O)n(Cc3cccc(C(=O)O)c3)c2Cl)c1	9	8	7	-14	i	-12	2	-4
O=S(=O)(c1ccccc1)N1CCCC1c1cccs1 (centres undefined)	1	20	2	-11	i	-11	1	-1
O=C(O)CCCC(=O)N1CCN(c2nc(-c3ccccc3Cl)c3cc(Br)ccc3n2)CC1	4	7	6	-13	i	5	13	-9
COC(=O)N/N=C\c1cc(Br)ccc1OCc1ccccc1	7	29	8	-10	i	-4	-1	-5
Cn1c(=O)oc2cc(S(=O)(=O)Nc3cccc(C(=O)O)c3)ccc21	11	-59	0	-6	i	0	2	3
Cn1c(-c2ccc(C(C)(C)C)cc2)n[nH]c1=S	29	/	-10	-22	i	-5	9	1
CC(C)c1ccc(N2CCN(C(=O)c3ccccc3NC(=O)/C=C(\C(=O)O)c3ccccc3)CC2)cc1	7	/	1	/	i	/	/	/
Cc1cccc2cc(C#N)c(NCCNS(=O)(=O)c3ccc4c(c3)OCCO4)nc12	-7	-20	-6	-1	i	12	-2	-1
CCCCNC(=O)Nc1cnn(CC)c1C(N)=O	6	-22	9	-4	/	-9	-5	0
C/C(=N\NC(=O)c1nnn(-c2nonc2N)c1CN1CCc2ccccc21)c1ccccc1O	5	3	-3	-6	i	91*	-2	-2
O=c1oc2ccccc2c(NCCc2ccccc2)c1[N+](=O)[O-]	6	/	7	-18	i	/	3	0
c1cc2ccc3ccc(CN4CCOCC4)c4ccc(c1)c2c34	10	-37	-3	-18	i	20	-5	-3
Cc1cnc(C(=O)OCC(=O)Nc2ccc(Cl)cc2)cn1	-9	/	-12	/	i	/	8	5
COc1ccc(-c2nnnn2-c2ccccc2OC)cc1	-16	-23	4	-35	i	36	3	2
O=C(COc1ccc(-c2nnco2)cc1)NC1CCS(=O)(=O)C1 (centres undefined)	/	/	/	-4	/	7	-1	3
CCN1CCN(C(=O)CCc2nnc3ccc(N4CCC5(CC4)OCCO5)nn23)CC1	5	-4	1	-4	i	-9	-1	1
Cc1ccc(N=Cc2c(O)n(-c3nccs3)c(=O)c3ccccc23)cc1	-4	-3	6	-18	i	11	1	0
O=C(O)c1cccc(NC(=O)c2cccc(S(=O)(=O)N3CCc4ccccc43)c2)c1	13	40	5	6	i	28	0	4
CCc1ccc(NC(=O)c2ccc(Cn3cc([N+](=O)[O-])cn3)cc2)cc1	-4	9	-1	-20	i	4	2	-4
COc1ccc(C(=O)NCC(=O)OCC(=O)c2ccccc2Br)cc1OC	/	-5	/	-6	/	/	4	7
Cc1cc(=O)oc2cc(OCC(=O)N3CCCC(C)C3)ccc12 (centres undefined)	-15	/	-2	/	i	-8	6	4
COc1ccc(C(=O)CCS(=O)(=O)c2ccc(C)cc2)cc1OC	3	/	-8	-11	i	26	-1	2
C[N+]1(CC(=O)OCCCc2ccccc2)CCOCC1	14	/	-8	-13	i	-7	-1	11
CC(=O)c1cccc(NC(=O)N2CCC(C(=O)c3ccc(F)cc3)CC2)c1	-4	-4	-7	-12	i	/	2	-12
CC1CCN(c2ccc3nnc(CCC(=O)NCCCOC(C)C)n3n2)CC1	2	-13	-6	-4	i	-9	2	4
N/C(=N\c1nc2c(c(=O)[nH]1)CCC2)Nc1ccccc1	-7	10	-7	/	i	-6	3	3
